# Mtb growth = M. tuberculosis H37Rv growth inhibitors, H37Rv strain (AID 1626); M. tuberculosis H37Rv growth inhibition; higher % means a stronger effect; inhibition, % at 10 µM; hits with a dose series show IC50 in µM; hit rate 0.95% among 220,000;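 active = confirmed in a dose series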;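 note: bacteria incubated seven days before Alamar blue readout; 0% = bacteria only wells and 100% = bacteria with antibiotic wells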
# Arbovirus inh = blocks arbovirus infection; hit rate 0.37% among 200,000; inhibition, % at 10 µM; arbovirus infection cell-based antiviral screen;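 active = inhibition from about 30%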;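 note: bluetongue infection of BSR cells; cell survival read as ATP light after 72 h; 0% = infected wells without compound and 100% = uninfected wells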
# RecA splice inh = Mtb RecA intein splicing inhibition | P9WHJ3 | cell-free RecA intein splicing, fluorescence | inhibition, %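 (about 9 µM by stock and volumes)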 | hit rate 0.75% among 290,000; in the data active = inhibition above about 30%;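 note: 0% = vehicle wells and 100% = reference inhibitor control wells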
# Target sequence (P9WHJ3 whole entry, looked up, canonical isoform): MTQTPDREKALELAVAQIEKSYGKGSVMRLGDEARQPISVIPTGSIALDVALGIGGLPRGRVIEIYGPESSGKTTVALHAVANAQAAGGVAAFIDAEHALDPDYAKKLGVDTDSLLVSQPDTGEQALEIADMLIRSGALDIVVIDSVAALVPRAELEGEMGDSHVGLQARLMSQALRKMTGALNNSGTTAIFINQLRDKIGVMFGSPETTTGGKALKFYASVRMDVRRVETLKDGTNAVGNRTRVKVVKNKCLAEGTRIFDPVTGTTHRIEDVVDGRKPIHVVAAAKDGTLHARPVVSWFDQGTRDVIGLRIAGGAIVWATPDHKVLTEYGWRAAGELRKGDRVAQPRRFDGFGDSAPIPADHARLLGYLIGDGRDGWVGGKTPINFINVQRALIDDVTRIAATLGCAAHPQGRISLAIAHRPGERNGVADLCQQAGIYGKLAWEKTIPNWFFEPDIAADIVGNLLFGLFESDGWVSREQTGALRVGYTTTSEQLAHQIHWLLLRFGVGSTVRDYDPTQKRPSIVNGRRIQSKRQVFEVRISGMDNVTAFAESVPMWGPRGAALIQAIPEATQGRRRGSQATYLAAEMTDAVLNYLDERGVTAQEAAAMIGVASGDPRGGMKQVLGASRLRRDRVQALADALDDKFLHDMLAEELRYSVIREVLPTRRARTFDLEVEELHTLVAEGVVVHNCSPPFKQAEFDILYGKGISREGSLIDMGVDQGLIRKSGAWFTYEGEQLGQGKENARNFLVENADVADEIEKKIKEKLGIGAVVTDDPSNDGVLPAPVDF
# YopH inh = inhibitors of Yersinia enterocolitica YopH tyrosine phosphatase | fluorescence Ex485/Em525 | inhibition, %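 (about 10 µM by stock and volumes)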 | hit rate 0.16% among 140,000;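 active = inhibition of 50% or more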;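 note: controls were vehicle for no effect and minimum signal wells for full effect; inactives centre near -20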
# Mtb betalactam = beta-lactam sensitization of Mtb H37Rv; M. tuberculosis H37Rv growth with meropenem, percent inhibition; hits of this screen are not shown here; inhibition, % at 25 µM; hit rate 0.27% among 330,000;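 active = about 74% or more and at least 40 points above the plate without the antibiotic, then above 30% in a dose series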;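 note: growth measured after seven days incubation then overnight dye step; 0% = bacteria only wells and 100% = bacteria with antibiotic; twin plates without the antibiotic show which effects depend on it; some results filed as inactive read as strong as hits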
# Arbovirus inh repeat = also measured in Arbovirus inh; calls as there; inhibition, %; measured here: 10K subset replicate screen; many hits read low in the repeat;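 first of two repeat runs on a subset; 0% = infected and 100% = uninfected wells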
# The depositor's hits bear a star; / = no result given. An excerpt, so the mix of outcomes need not match the whole.
SMILES,Mtb growth,Arbovirus inh,RecA splice inh,YopH inh,Mtb betalactam,others
CCCN1C(=O)c2ccccc2NC1c1ccc(Cl)c(Cl)c1 (centres undefined),/,/,7.7,/,-0.8,
O=C(Cn1cc([N+](=O)[O-])cn1)NCc1ccc(-n2cccn2)cc1,-5.3%,2.0,2.1,/,-1.6,
O=C(NCCc1nc2ccccc2[nH]1)/C(=C/c1ccco1)NC(=O)c1ccco1,-1.7%,5.1,0.5,-13.8,0.8,
O=C(NCCS(=O)(=O)N1CCN(c2ccccc2)CC1)c1ccco1,/,/,1.3,/,-7.5,
COc1ccc(CCNC(=O)Cn2nnc(C(=O)Nc3ccc(Br)cc3)c2N)cc1OC,/,/,-0.1,/,7.4,
COCC(=O)Nc1ccccc1C(=O)Nc1ccc(OC)cc1,-5.9%,0.2,0.0,6.1,-4.3,
Cc1ccc(S(=O)(=O)NNC(=O)c2cccc(O)c2)cc1,-1.5%,1.3,-1.6,/,9.2,
Cc1cc(C(=O)N2CCC(C(=O)O)CC2)c(C(F)(F)F)o1,-3.8%,/,-0.1,/,-4.3,
CC(=O)Nc1ccc(S(=O)(=O)NC2CCS(=O)(=O)C2)cc1Cl (centres undefined),1.1%,/,2.4,/,0.7,
CC(=O)Nc1ccc(NC(=O)CCn2c(=S)oc3ccccc32)cc1,1.5%,-6.5,-2.0,/,-4.8,
CCS(=O)(=O)Nc1ccc(C2=NN(C(=O)c3ccco3)C(c3ccc(C)cc3)C2)cc1 (centres undefined),17.6%,-28.7,12.4,-15.6,15.2,
COc1ccc(NC(=O)C(=O)NCCCO)cc1Cl,5.5%,5.2,-0.5,/,-6.3,
CCOc1cc(/C=N/NC(=O)c2cccnc2)ccc1OCC(=O)N1CCOCC1,-8.8%,-9.1,-1.6,-24.2,-0.1,
C=CCNC(=O)C(C#N)c1nc2ccccc2nc1N1CCN(Cc2ccccc2)CC1 (centres undefined),-4.6%,1.9,-1.4,3.1,-10.3,
O=C(CCSc1nc(-c2ccco2)cc(C(F)(F)F)n1)NCC1CCCO1 (centres undefined),1.1%,9.7,0.6,-5.7,-13.4,
C[C@]12CCC3C(CC[C@H]4C[C@H](N)CC[C@]34C)C1CC[C@H]2O (some centres undefined),/,/,-1.4,/,-4.7,
COc1ccc(C(=O)/C=C/C(=O)N(Cc2ccccc2OC)C(C(=O)NC2CCCCC2)c2ccncc2)c(O)c1 (centres undefined),1.0%,-9.4,4.0,-18.3,6.5,
O=C(Nc1cccnc1)C1CCN(S(=O)(=O)c2cccs2)CC1,-0.3%,10.1,-0.1,/,-2.8,
Cc1ccccc1Nc1nc(N)nc(CSc2nnc(C)n2C)n1,3.9%,7.3,-1.4,/,-5.6,
O=C(CSc1ccc2nnc(-c3cccnc3)n2n1)Nc1ccc(F)cc1F,/,/,-4.5,/,3.1,
Nc1nonc1C(=O)NCCNC(=O)c1cccs1,-8.8%,1.9,0.3,28.5,-4.7,
COc1cc2c(c(OC)c1OC)-c1ccc(OC)c(=O)cc1[C@@H](NC(C)=O)CC2,/,/,-3.6,/,-7.4,
COc1cc(C(C)=O)ccc1OCC(O)CN1CCN(c2cc(C)cc(C)c2)CC1 (centres undefined),/,/,-0.6,/,17.5,
Cc1ccc(C(=O)C2CN(C)CC2C(=O)c2ccc(C)cc2)cc1 (centres undefined),16.3%,12.0,-0.9,-30.6,-4.3,
CC(C)(C)P(=O)(NCc1ccccc1)c1ccccc1 (centres undefined),-1.3%,6.0,-0.7,/,-1.7,
# New compounds follow.
SMILES,Mtb growth,Arbovirus inh,RecA splice inh,YopH inh,Mtb betalactam,others
Cc1cc2oc(=O)cc(CN3CCN(S(=O)(=O)c4cccs4)CC3)c2cc1C,0.1%,4.2,-2.0,-26.4,3.2,
CCOC(=O)N1CCC(NC(=O)Cn2nc(-c3ccccc3)ccc2=O)CC1,-2.9%,-0.9,0.9,-27.0,-1.0,
CC1(C)c2[nH]c3ccccc3c2C[C@@H]2C(=O)N(c3cc(F)ccc3F)C(=O)N21,-10.2%,/,-2.7,/,-12.2,
O=C(CCCSc1nc(-c2ccco2)cc(C(F)(F)F)n1)Nc1ccc2c(c1)OCO2,6.6%,-8.6,-3.9,1.3,4.8,
COc1ccc(CSc2nnc(-c3ccncc3)n2C)cc1F,/,/,-0.1,/,-3.7,
Cc1nccn1CCC1CCCCN1C(=O)CCc1nnc(-c2ccsc2)o1 (centres undefined),-4.3%,-7.3,3.4,/,-7.1,
CN(Cc1cc2ccccc2[nH]c1=O)C(=O)c1cccs1,-1.0%,1.1,3.7,/,-3.5,
COc1ccc(/C=N/OCC(=O)N(Cc2ccc(OC)cc2)c2ccccc2C(=O)O)cc1,-1.4%,-2.2,1.5,-17.1,-1.5,
COc1ccc(NC(=O)C(CC(C)C)NS(=O)(=O)c2ccc3c(c2)CCN3C(C)=O)cc1OC (centres undefined),-7.1%,1.5,0.4,-8.1,5.0,
Cc1nn2c(Nc3ccc(F)cc3)c3c(nc2c1-c1ccccc1)CCC3,-6.0%,-8.3,2.1,-13.3,7.9,
Cc1nn(Cc2ccccc2)c(Cl)c1C(=O)NCCc1ccccc1,4.4%,-3.4,0.7,-12.2,-1.2,
CN(Cc1ccccc1)c1oc(COc2ccccc2F)nc1C#N,7.8%,11.6,10.1,/,1.8,Arbovirus inh repeat=-10.3
O=C(CC(Cc1ccccc1)C(=O)O)Nc1cccc(C(F)(F)F)c1 (centres undefined),/,/,-0.6,/,7.9,
O=C(CSc1nc(-c2ccccc2)nn1C(=O)c1ccccc1)Nc1cccc([N+](=O)[O-])c1,-5.9%,8.4,26.9,-37.9,-3.4,
O=C(NCc1nc2ccccc2[nH]1)C1=C[C@H](c2coc3ccccc3c2=O)C[C@H](OCc2ccc(CO)cc2)O1,-8.1%,/,4.0,/,52.4,
CN(Cc1ccccn1)Cc1nc(COc2ccccc2)no1,-1.3%,-4.9,-1.5,/,-2.8,
O=C(C1CCCCC1)N(Cc1ccccc1)c1ccccn1,/,-5.2,-0.1,-16.6,-6.2,
Cc1cccc(NC(=O)c2cc(NC(=O)C3CCCCC3C(=O)O)ccc2Cl)n1 (centres undefined),-10.9%,-3.1,-0.5,-28.6,-1.9,
COc1ccc(CCNC/C=C/c2ccccc2)cc1,/,/,-0.9,/,-5.6,
CCCn1cnc2c(=S)nc(N)[nH]c21,7.9%,/,-1.7,/,-2.4,
CCc1ccccc1NC(=O)c1cc2ncc(Br)cn2n1,-6.2%,-5.9,-1.3,-2.8,-10.3,
CCOC(=O)C(C(C)=O)C(c1ccc(OC)cc1)C(C(C)=O)C(=O)OCC (centres undefined),3.2%,-1.3,1.5,-5.1,-12.8,
COc1ccccc1NNC(=O)C(O)(c1ccccc1OC)c1ccccc1OC,2.7%,-7.3,-1.0,-16.5,10.7,
CCN1C(=O)CC(C(=O)OC)=C1C,1.2%,3.1,-1.0,/,-0.7,
CCn1cc(C(=O)NCCCN2CCCCCC2)c(=O)c2cc(S(=O)(=O)N3CCc4ccccc4C3)ccc21,2.2%,-24.1,0.3,/,7.5,

# Structures above that have two or more sulfur atoms (three):
SMILES,Mtb growth,Arbovirus inh,RecA splice inh,YopH inh,Mtb betalactam,others
CC(=O)Nc1ccc(S(=O)(=O)NC2CCS(=O)(=O)C2)cc1Cl (centres undefined),1.1%,/,2.4,/,0.7,
O=C(Nc1cccnc1)C1CCN(S(=O)(=O)c2cccs2)CC1,-0.3%,10.1,-0.1,/,-2.8,
Cc1cc2oc(=O)cc(CN3CCN(S(=O)(=O)c4cccs4)CC3)c2cc1C,0.1%,4.2,-2.0,-26.4,3.2,

# More entries follow.
SMILES,Mtb growth,Arbovirus inh,RecA splice inh,YopH inh,Mtb betalactam,others
CC1CCCC(NC(=O)COC(=O)c2cccc(NS(=O)(=O)/C=C/c3ccccc3)c2)C1C (centres undefined),3.6%,-2.3,-1.8,-28.4,/,
CC1C(=O)C(C)C(c2cccc(Br)c2)NC1c1cccc(Br)c1 (centres undefined),/,/,6.2,/,7.9,
CN(C)S(=O)(=O)n1cc(/C=C(\NC(=O)c2ccccc2)C(=O)N2CCCC2)c2ccccc21,/,/,2.0,/,8.8,
CN(C)C(CNC(=S)Nc1cccc(Cl)c1)c1cccnc1 (centres undefined),-0.7%,-8.7,-2.8,/,-10.5,
O=C(NCC1CCCO1)c1ccc(COc2ccc(Cl)cc2)cc1 (centres undefined),11.7%,-8.9,1.5,/,5.8,
COc1ccc(NC(=O)Cc2ccc(Cl)c(Cl)c2)cn1,7.2%,-18.4,6.9,/,1.6,
O=C(NCCCN=C1NS(=O)(=O)c2ccccc21)c1ccc(Cl)cc1,/,/,1.4,/,-1.9,
CCOC(=O)Nc1ccc2c(c1)N(C(=O)CCN(CC)CC)c1ccccc1S2=O (centres undefined),/,/,1.3,/,0.5,
COC(=O)c1cc(-n2cccc2)ccc1N1CCOCC1,-4.3%,/,-0.1,/,-4.2,
CN(C)c1nc(N)c2ncc(=S)[nH]c2n1,3.2%,2.5,-14.0,/,-2.6,
COCCN(Cc1cc2cc3c(cc2nc1Cl)OCO3)C(=O)c1ccc(C)cc1,-4.6%,9.2,0.4,/,1.9,
N#CCc1nn(Cc2ccc(F)cc2)c(=O)c2ccccc12,/,/,2.1,/,4.6,
CC(=O)c1c(C)[nH]c(C)c1C(C)=O,6.1%,5.6,-1.4,7.4,8.1,
CN1CCC(=O)N([C@H](CSc2ccc(Br)cc2)Cc2ccccc2)CC1,-2.0%,/,0.3,/,-1.0,
C=CCSc1nnc(NC(=O)c2cccc(S(=O)(=O)N3CCOCC3)c2)s1,7.5%,19.1,4.0,-29.6,-4.8,
COC(CNC(=O)Cc1c(C)nc2c(-c3ccccc3)c(C)nn2c1C)OC,-7.6%,6.0,-0.8,/,-2.4,
CC(NC(=O)C(Cc1ccccc1)n1cccc1)c1ccccc1 (centres undefined),1.2%,/,-0.4,/,3.2,
COc1cccc(-n2cc3c(c2-c2ccccc2)c(=O)n(C)c(=O)n3C)c1,19.1%,9.0,2.2,-33.1,0.3,
COc1ccc(N=C2SC(C(N)=O)CC(=O)N2Cc2ccc3c(c2)OCO3)cc1 (centres undefined),-3.1%,/,-0.4,/,2.7,
O=C(O)Cn1c(SCc2cccc3ccccc23)nc2ccccc21,-9.5%,9.2,-1.6,-15.9,-1.3,
C=CCNCCCOc1ccc(Cl)cc1Br,-2.1%,-31.1,-0.1,-20.9,-7.7,
N#C/C(=C/c1ccc(O)c([N+](=O)[O-])c1)C(=O)Nc1ccccc1,3.9%,0.5,2.1,/,42.9,
O=C(c1ccco1)N1CCN(CC(=O)N2c3ccccc3CCc3ccccc32)CC1,-9.6%,10.1,2.8,1.2,-4.9,
COc1ccccc1NC(=S)Nc1ccccc1F,-3.3%,-7.8,-2.2,-19.6,-5.8,
COCCNC(=O)COc1cccc2c1OC(C)(C)C2,-2.6%,14.9,1.7,/,3.4,

# Next section, overlapping the part above by five compounds.
SMILES,Mtb growth,Arbovirus inh,RecA splice inh,YopH inh,Mtb betalactam,others
C=CCNCCCOc1ccc(Cl)cc1Br,-2.1%,-31.1,-0.1,-20.9,-7.7,
N#C/C(=C/c1ccc(O)c([N+](=O)[O-])c1)C(=O)Nc1ccccc1,3.9%,0.5,2.1,/,42.9,
O=C(c1ccco1)N1CCN(CC(=O)N2c3ccccc3CCc3ccccc32)CC1,-9.6%,10.1,2.8,1.2,-4.9,
COc1ccccc1NC(=S)Nc1ccccc1F,-3.3%,-7.8,-2.2,-19.6,-5.8,
COCCNC(=O)COc1cccc2c1OC(C)(C)C2,-2.6%,14.9,1.7,/,3.4,
CCOC(=O)NC(=O)c1cn(C(CC)CO)c(=O)[nH]c1=O (centres undefined),-5.2%,4.2,-0.4,-20.9,-11.5,
Cc1nc(NCCc2ccccc2)c2nnn(Cc3ccccc3Cl)c2n1,/,/,-2.2,/,-5.2,
CC(C)CC(=O)NCC(C)NC(=O)CC(C)C (centres undefined),-1.8%,3.4,-1.3,-12.0,-0.3,
CN1CCN(C(=O)CN2C(=O)COc3ccc(S(=O)(=O)N4CCOCC4)cc32)CC1,/,/,1.1,/,-5.1,
Cc1ccc(C(=O)O/N=C2\CCSc3ccc(C)cc32)cc1,-1.3%,-4.4,1.6,-6.2,7.3,
CCCCn1c(N)c(N(CCOC)C(=O)CN2C(=O)c3ccccc3C2=O)c(=O)[nH]c1=O,/,/,-1.5,/,-10.8,
O=C(N=c1ccn(-c2nc3ccccc3nc2NS(=O)(=O)c2ccccc2)cc1)c1cccs1,9.8%,4.3,-177.2,-13.1,2.2,
CNc1nc2ccccc2n1/N=C/c1cccc(OC)c1OC,3.8%,-5.6,0.5,-13.7,/,
COC(=O)c1sc(NC(=O)CSc2nc3cccnc3n2C)nc1C,/,/,-3.8,/,-2.5,
C=CCOc1ccccc1/C=N/NC(=O)Cc1ccccc1,/,/,2.6,/,2.5,
N#CCC(=O)N/N=C\c1cc(Br)ccc1OC/C=C/c1ccccc1,/,/,0.7,/,2.8,

# Bioassay records (PubChem BioAssay)
